Source: PubChem BioAssay
AF4-AF9 inh: inhibitors of human MLL-AF4/AF9 interaction. AlphaScreen, biotin-AF4 peptide binding to FLAG-AF9. inhibition, % at 10 µM. actives 0.47% (n = 350,000);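 active = every replicate reaching a set inhibition limit, whatever the replicate mean, cut at about 25% in these data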;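 also: 0% = plate neutral control median and 100% = total signal loss; the record names both 10 and 1 µM as test concentration; the first replicate is given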
Target sequence (P42568 whole entry, looked up): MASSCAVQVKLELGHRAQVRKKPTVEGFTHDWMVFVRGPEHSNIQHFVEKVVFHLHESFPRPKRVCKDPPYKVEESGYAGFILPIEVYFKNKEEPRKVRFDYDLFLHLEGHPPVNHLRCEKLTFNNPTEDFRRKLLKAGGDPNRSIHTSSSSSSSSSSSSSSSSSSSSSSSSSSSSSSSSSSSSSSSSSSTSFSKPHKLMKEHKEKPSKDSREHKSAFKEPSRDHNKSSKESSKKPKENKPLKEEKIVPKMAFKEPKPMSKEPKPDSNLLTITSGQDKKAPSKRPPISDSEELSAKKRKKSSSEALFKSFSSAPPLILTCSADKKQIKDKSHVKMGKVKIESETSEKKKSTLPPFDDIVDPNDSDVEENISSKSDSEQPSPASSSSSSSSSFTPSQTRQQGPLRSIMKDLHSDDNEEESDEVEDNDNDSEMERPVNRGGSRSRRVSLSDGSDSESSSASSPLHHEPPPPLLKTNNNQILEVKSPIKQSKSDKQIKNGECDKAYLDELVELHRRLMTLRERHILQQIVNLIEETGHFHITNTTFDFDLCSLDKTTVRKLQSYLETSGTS
FGF22 binding: binders of recombinant human FGF22 by thermal shift | Q9HCT0 | actives 1.5% (n = 340,000) | calls only at 9.99 µM | SYPRO orange fluorescence; percent of sucrose octasulfate shift, DMSO zero;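 active = melting point raised past a set limit in the mean and every replicate; three in four hits are not shown here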
Target sequence (Q9HCT0 whole entry, looked up): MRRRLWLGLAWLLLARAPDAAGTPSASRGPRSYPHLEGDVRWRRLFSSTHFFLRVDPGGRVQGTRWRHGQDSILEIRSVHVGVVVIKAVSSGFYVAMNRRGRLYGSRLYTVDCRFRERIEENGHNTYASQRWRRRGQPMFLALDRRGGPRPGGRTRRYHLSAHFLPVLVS
Ecoli rRNA inh: selective bacterial rRNA inhibition in E. coli; E. coli WT GFP vs humanized-ribosome RFP mutants, fluorescence, 24 h; active compounds read low; DMSO median 0, no signal -100; actives 1.6% (n = 350,000); GFP signal change (wild-type ribosome), % (no concentration beside the values);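 active = significant combined selectivity score with lowered wild-type GFP, culture density cut under 30%, mutant RFP and density less affected; inactive = any of these conditions unmet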; also: one replicate is shown; some compounds called inactive have numbers as strong as hits
Ecoli rRNA inh OD600: further read-out of Ecoli rRNA inh, marked with its call; OD600 change, %; measured here: OD600 growth;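 optical density of the mix in the first replicate; 0 = DMSO median and -100 = no signal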
Ecoli rRNA inh RFP: also measured in Ecoli rRNA inh; calls as there; RFP signal change, %; measured here: RFP humanized mutant strains;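 first replicate; 0 = DMSO median and -100 = no signal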
Starred values were filed as active, the others as inactive; i = inactive; / = not tested or not shown; + = active, no number; & = joins results of further samples; ! = not active in a repeat.

AF4-AF9 inh	FGF22 binding	Ecoli rRNA inh	Ecoli rRNA inh OD600	Ecoli rRNA inh RFP	Molecule
-8.3	i	4	2	-4.9	C/C=C/c1cnc2c(c1)C(=O)N([C@H](C)CO)C[C@H](C)[C@H](CN(C)S(=O)(=O)c1ccc(OC)cc1)O2
-2.0	i	3	6	-1.2	C[C@H]1CCCCO[C@@H](CN(C)C(=O)Nc2ccc(C(F)(F)F)cc2)[C@@H](C)CN([C@@H](C)CO)C(=O)c2cc(NC(=O)Nc3ccc(F)cc3)ccc2O1
5.6	i	-21*	-4.6*	-3.7*	O=[N+]([O-])c1cccc(N=Nc2ccc(O)cc2O)c1
6.9	i	-1	4	-2.3	C/C=C/c1ccc([C@@H]2[C@H](CO)N(CC3CCOCC3)C23CN(S(=O)(=O)CC)C3)cc1
-1.6	i	-5	-2	1.9	COc1ccc(-c2nc3c(Cl)cc(C(F)(F)F)cn3c2Cc2cccc(F)c2)cc1OC
-4.0	i	2	4	-0.5	CO[C@@H]1CN(C)C(=O)c2cc(NC(C)=O)ccc2OC[C@H](C)N(Cc2ccncc2)C[C@@H]1C
-1.4	i	-14	-24	14	COc1ccc(NC(=O)Nc2ccc3c(c2)C(=O)N([C@H](C)CO)C[C@H](C)[C@H](CN(C)CC2CCCCC2)OCCCC[C@H](C)O3)cc1
-0.4	i	5	-5	-1.7	C[C@@H]1CN([C@H](C)CO)C(=O)Cc2cc(NC(=O)Cc3ccccc3)ccc2O[C@@H]1CN(C)C
-1.4	i	-8	-8	3.5	O=C(C[C@@H]1CC[C@@H](NS(=O)(=O)c2ccccc2)[C@@H](CO)O1)NCc1ccc(Cl)c(Cl)c1
0.4	i	4	2	-2.6	COc1ccc(CNC(=O)C[C@H]2CC[C@@H]3[C@@H](COc4ccc(NC(C)=O)cc4C(=O)N3C)O2)cc1
-0.9	i	4	4	-1.7	Cc1ccc(S(=O)(=O)N2[C@@H](CO)CO[C@H]2CC(=O)c2cccs2)cc1
0.6	i	-5	-10	0.3	CCC(=O)NC[C@H]1[C@H](c2ccc(-c3ccccc3)cc2)[C@@H](CO)N1C(=O)C1CC1
-1.1	i	1	12	-0.8	COc1ccc(-c2cn(CC[C@@H]3CC[C@H](NC(=O)c4cnccn4)[C@@H](CO)O3)nn2)cc1
-0.2	i	5	7	3.1	COc1ccc(CC(=O)NCc2cccc(Cl)c2)cc1S(=O)(=O)N1CCOCC1
-2.7	i	4	5	-1.7	C[C@H](CO)N1C[C@H](C)[C@H](CN(C)Cc2ccc3c(c2)OCO3)Oc2ccc(NC(=O)CCN3CCOCC3)cc2C1=O
3.5	i	-4	8	4.1	COc1ccc(NC(=O)N2C[C@H]3[C@@H](c4ccccc42)[C@@H](CO)N3Cc2ccccn2)cc1
-0.7	i	2	9	-2.5	CO[C@H]1CC[C@@H]2CCN(C)C(=O)[C@@H](C)N(C)C(=O)c3cccc(C#N)c3OC[C@@H]1O2
4.8	i	-11	-14	0.3	COc1cc2c(cc1OC)C(CNC(=O)C=Cc1cc(OC)c(OC)c(OC)c1)C2 (stereo not given)
1.8	i	-3	-2	-1.7	O=C(C[C@@H]1C[C@H]2c3cc(NC(=O)C4CCC4)ccc3O[C@H]2[C@H](CO)O1)NCc1cc(F)ccc1F
-23	i	5	8	-1.9	COC(=O)C[C@H]1C[C@H]2c3cc(NC(=O)CN(C)C)ccc3O[C@H]2[C@@H](CO)O1
0.7	i	1	7	0.2	CSCCC(NC(=O)OCc1ccccc1)C(=O)NC(Cc1c[nH]c2ccccc12)C(=O)O (stereo not given)
-0.6	i	1	-24	2.6	O=C(COC(=O)/C=C/c1ccc(Cl)cc1Cl)Nc1cccc(S(=O)(=O)NC2=NCCC2)c1
-2.7	+	2	1	-0.7	COc1ccc(-c2nc(SCC(=O)Nc3cccc(S(N)(=O)=O)c3)n[nH]2)cc1
-2.6	i	0	3	-2.2	C[C@H]1CN([C@@H](C)CO)C(=O)c2cc(NC(=O)Cc3cn(C)c4ccccc34)ccc2O[C@H]1CN(C)Cc1ccc(C(=O)O)cc1
-0.7	i	9	8	1.3	O=C(Oc1ccccc1Cl)c1ccccc1
-0.6	i	-1	3	0.5	C[C@@H]1CN([C@H](C)CO)C(=O)c2cccc(NC(=O)Nc3ccc(F)cc3)c2O[C@H]1CN(C)C
-0.5	i	-1	-3	2.2	C[C@@H]1CCCCO[C@H](CN(C)C(=O)NC2CCCCC2)[C@H](C)CN([C@H](C)CO)C(=O)c2cc(NS(=O)(=O)c3ccc(F)cc3)ccc2O1
-2.3	i	2	5	-2.2	C[C@H]1CN([C@@H](C)CO)C(=O)c2cc(-c3ccc(C#N)cc3)cnc2O[C@@H]1CN(C)CC1CCOCC1
2.7	i	-6	-17	2.1	CCOC(=O)C1CCCN(C(=O)COc2ccc(C(=O)c3ccccc3)cc2)C1 (stereo not given)
-3.3	i	0	19	-1.7	O=C(Nc1ccc2c(c1)OCCO2)C(CCc1ccccc1)N(Cc1ccccc1)Cc1ccccc1 (stereo not given)
-1.6	i	-6	-15	1.4	C[C@@H]1CN([C@H](C)CO)C(=O)c2cccc(NC(=O)C3CCCCC3)c2O[C@@H]1CN(C)S(=O)(=O)c1ccc(F)cc1
1.4	i	2	-2	1.0	CCCNC(=O)N(C)C[C@@H]1Oc2ncc(C#CCC3CCCC3)cc2C(=O)N([C@H](C)CO)C[C@@H]1C
-0.2	i	-5	-29	-2.0	O=C(C[C@H]1CC[C@@H](NC(=O)c2ccc3c(c2)OCO3)[C@@H](CO)O1)NCc1ccc(Oc2ccccc2)cc1
2.2	i	5	14	18	FC(F)C(F)(F)Oc1cccc(Nc2nccn3c(-c4ccc5ccccc5c4)cnc23)c1
-3.0	i	4	0	-3.0	C[C@@H]1CN([C@H](C)CO)C(=O)c2cc(-c3cccc(F)c3)cnc2O[C@@H]1CN(C)C(=O)c1cnccn1
-9.2	i	-12	-13	3.4	CCC1(c2ccc(F)cc2)NC(=O)N(CC(=O)Nc2cccc(S(=O)(=O)N3CCCC3)c2)C1=O (stereo not given)
2.4	i	4	9	-4.7	C[C@@H]1CN([C@H](C)CO)C(=O)c2c(c3ccccc3n2C)-c2ccccc2CO[C@H]1CN(C)Cc1ccccc1C(F)(F)F
2.1	i	5	3	2.2	CC(=O)Nc1ccc(S(=O)(=O)NCc2ccc(C(=O)NCCN(C)Cc3ccccc3)cc2)cc1
-2.6	i	-3	3	0.2	Cc1ccc(S(=O)(=O)N2C[C@H]3N(C(=O)OC(C)C)N(C(=O)OC(C)C)C[C@H](OC(=O)Nc4c(C)noc4C)[C@@]3(O)C2)cc1
3.1	i	-2	-4	-1.5	C[C@@H]1CN([C@@H](C)CO)C(=O)c2cccc(NC(=O)Nc3ccc4c(c3)OCO4)c2O[C@H]1CN(C)S(=O)(=O)c1ccccc1
-1.1	i	2	-7	-0.5	Cc1noc(C)c1NC(=O)Nc1ccc2c(c1)C(=O)N([C@@H](C)CO)C[C@H](C)[C@@H](CN(C)C(=O)NC(C)C)O2
3.0	i	-29	-29	-12	NC(Cc1ccc(C(F)(F)F)cc1)c1csc(NC(=O)Nc2ccccc2Oc2ccccc2)n1 (stereo not given)
-1.3	i	4	10	-1.6	COc1ccc(NC(=O)N(C)C[C@@H]2Oc3ccc(NC(=O)CCC(F)(F)F)cc3CC(=O)N([C@@H](C)CO)C[C@@H]2C)cc1
0.6&0.9&-11	i	18&0	14&7	3.7&-1.8	C[C@H]1CN([C@@H](C)CO)C(=O)CCCn2nncc2CO[C@H]1CN(C)S(=O)(=O)c1ccccc1
-0.6	i	-1	-6	-2.9	C[C@H]1CN([C@@H](C)CO)S(=O)(=O)c2ccc(C3=CCCC3)cc2O[C@H]1CN(C)C(=O)Cc1ccncc1
0.0	i	-1	-3	-2.1	COc1ccc(CN(C)C[C@H]2Oc3ccc(NC(=O)CCN4CCOCC4)cc3C(=O)N([C@@H](C)CO)C[C@@H]2C)cc1
-1.9	i	1	4	-1.5	CO[C@H]1CN(C)C(=O)c2ccc(NC(C)=O)cc2OC[C@@H](C)N(C(=O)CC2CC2)C[C@H]1C
-9.6	i	-1	6	-0.8	CCCNC(=O)Nc1ccc2c(c1)C(=O)N(C)[C@H]1CC[C@H](CC(=O)NCc3ccccc3)O[C@H]1CO2
-1.1	i	0	5	-0.1	O=C(c1ccccc1F)N1CC2(C1)[C@@H](c1ccccc1)[C@@H](CO)N2CC1CCOCC1
-2.2	i	10	15	-0.8	CCOC(=O)C1=NNC(C(=O)O)C1c1ccccc1 (stereo not given)
-2.9	i	12	21	1.4	NC1=NC(c2ccccc2)CC(=O)N1 (stereo not given)
0.0	i	-3	2	4.5	CCOC(=O)[C@]12CCCC=C1N(Cc1ccccc1)C(=O)[C@H](CC(=O)NCc1ccc(OC)c(OC)c1)C2
-1.1	i	0	-1	-4.2	CCCNC(=O)N1[C@@H]2CN(C(=O)C3CCC3)c3ccccc3[C@@H]2[C@@H]1CO
-0.2	i	-1	1	-1.9	Cc1ccc(S(=O)(=O)Nc2ccc3c(c2)C(=O)N(C)[C@H]2CC[C@@H](CC(=O)NCCc4ccncc4)O[C@H]2CO3)cc1
-0.1	i	2	4	-0.3	O=C(C[C@@H]1C[C@H]2c3cc(NC(=O)C4CCC4)ccc3O[C@H]2[C@@H](CO)O1)NCc1cccc(F)c1
2.7	i	-3	-6	-1.1	C[C@H](CO)N1C[C@H](C)[C@@H](CN(C)S(=O)(=O)c2ccccc2)OCCCC[C@H](C)Oc2ccc(NS(=O)(=O)c3cccs3)cc2C1=O
1.8&1.5&2.7	i	-20*!	-15*!	5.6*!	COCC#Cc1ccc2c(c1)O[C@@H](CN(C)S(=O)(=O)c1cccc(F)c1)[C@@H](C)CN([C@H](C)CO)S2(=O)=O
0.1	i	1	-2	-0.2	CCC(=O)Nc1ccc2c(c1)C(=O)N(C)C[C@H](OC)[C@@H](C)CN(CC1CC1)[C@H](C)CO2
-1.0	i	3	11	-3.7	CC[C@@H]1C(c2ccc(F)cc2)=NN(c2ccc(Br)cc2)[C@H]1C(=O)N1CCOC1=O
3.2	i	-17	-38	-14	CC(=O)Nc1cccc(-c2ccnc3c2CC(C)(C(=O)NCCc2ccccc2)O3)c1 (stereo not given)

In the list so far, two have a cyano group.
AF4-AF9 inh	FGF22 binding	Ecoli rRNA inh	Ecoli rRNA inh OD600	Ecoli rRNA inh RFP	Molecule
-0.7	i	2	9	-2.5	CO[C@H]1CC[C@@H]2CCN(C)C(=O)[C@@H](C)N(C)C(=O)c3cccc(C#N)c3OC[C@@H]1O2
-2.3	i	2	5	-2.2	C[C@H]1CN([C@@H](C)CO)C(=O)c2cc(-c3ccc(C#N)cc3)cnc2O[C@@H]1CN(C)CC1CCOCC1

New compounds follow
AF4-AF9 inh	FGF22 binding	Ecoli rRNA inh	Ecoli rRNA inh OD600	Ecoli rRNA inh RFP	Molecule
1.6	i	1	10	-0.8	C[C@H]1CN([C@@H](C)CO)C(=O)c2cccc(NS(C)(=O)=O)c2O[C@H]1CN(C)S(=O)(=O)c1cn(C)cn1
-4.8	i	14&1	9&-1	1.3&0.8	C[C@@H]1CN([C@H](C)CO)C(=O)CCCn2cc(nn2)CO[C@H]1CN(C)S(=O)(=O)c1cccc(C#N)c1
7.0	i	-8	-15	0.6	C[C@H]1CN([C@@H](C)CO)S(=O)(=O)c2ccc(-c3cccc(C(=O)N(C)C)c3)cc2O[C@H]1CN(C)Cc1ccc2c(c1)OCO2
0.8	i	0	8	-1.6	C[C@@H]1CN([C@@H](C)CO)C(=O)c2cc(NC(=O)CCN3CCOCC3)ccc2O[C@@H]1CN(C)Cc1ccc(C(=O)Nc2ccccc2N)cc1
4.1	i	-4	-5	0.8	C[C@@H]1CN([C@H](C)CO)S(=O)(=O)c2ccc(-c3ccncc3)cc2O[C@@H]1CN(C)Cc1ccccc1
-13	/	-5	-33	-1.1	COC(=O)Cc1nnn2c1[C@@H](C)[C@@H](c1ccccc1Br)O[C@@H](C)C2
-0.9&-2.3&-2.0	i	-3&2	4&6	3.3&-4.7	C[C@H]1CN([C@@H](C)CO)S(=O)(=O)c2ccc(Br)cc2O[C@H]1CN(C)C(=O)c1cnccn1
-0.1	i	3	12	1.8	O=C1c2c(-c3ccc(Br)cc3)noc2CCN1Cc1cn(-c2ccc(Cl)cc2)nn1
-3.5	i	1	1	0.0	C[C@H](CO)N1C[C@H](C)[C@@H](CN(C)C(=O)c2ccncc2)OCc2ccccc2-c2c(n(C)c3ccccc23)C1=O
-9.3	i	0	9	3.3	COCC(=O)N1[C@@H](CO)[C@@H](c2ccccc2)C12CN(Cc1ccccc1)C2

Quoted from the listing:
Reading of `CO[C@@H]1CN(C)C(=O)c2cc(NC(C)=O)ccc2OC[C@H](C)N(Cc2ccncc2)C[C@@H]1C` under Ecoli rRNA inh: 2
Reading of `O=C1c2c(-c3ccc(Br)cc3)noc2CCN1Cc1cn(-c2ccc(Cl)cc2)nn1` under Ecoli rRNA inh OD600: 12
Reading of `NC1=NC(c2ccccc2)CC(=O)N1` (stereo not given) under Ecoli rRNA inh: 12
Reading of `C[C@@H]1CN([C@@H](C)CO)C(=O)c2cccc(NC(=O)Nc3ccc4c(c3)OCO4)c2O[C@H]1CN(C)S(=O)(=O)c1ccccc1` under AF4-AF9 inh: 3.1

Some of the compounds tested, so the mix of outcomes need not match the whole.
